# rRNA inh HTS: inhibits bacterial ribosomal RNA function over humanized ribosomes; GFP signal change (wild-type ribosome), % (no concentration beside the values); E. coli WT GFP vs humanized-ribosome RFP mutants, fluorescence, 24 h; hits give low values; DMSO median 0, no signal -100; 350,000 compounds, 1.6% hits;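 active = significant combined selectivity score with lowered wild-type GFP, culture density cut under 30%, mutant RFP and density less affected; inactive = any of these conditions unmet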; also: one replicate is shown; some compounds called inactive have numbers as strong as hits
# ALR H2O2 inh: inhibitors of human sulfhydryl oxidase ALR; purified ALR, DTT oxidation, H2O2 HRP-luminol luminescence; inhibition, % (test concentration not listed); 290,000 compounds, 3.8% hits; AID 485317;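 active = mean and each replicate at 75% or more; inconclusive = only one of the two met; inactive = neither met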;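 also: stock transfer was 7.5 nL into about 7.5 µL; 0% = neutral wells and 100% = wells with inactivated enzyme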
# Target sequence (P55789 whole entry, looked up): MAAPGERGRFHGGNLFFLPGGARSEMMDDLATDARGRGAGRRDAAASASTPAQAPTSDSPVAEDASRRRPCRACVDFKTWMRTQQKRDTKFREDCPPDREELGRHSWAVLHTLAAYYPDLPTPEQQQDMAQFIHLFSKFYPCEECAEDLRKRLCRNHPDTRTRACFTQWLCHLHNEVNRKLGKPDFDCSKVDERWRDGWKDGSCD
# T cruzi inh: blocks replication of Trypanosoma cruzi. inhibition, % (no concentration beside the values). AID 1885. T. cruzi beta-gal in NIH3T3, luminescence, 90 h. 300,000 compounds, 1.4% hits;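 active = mean inhibition across valid replicates above about 55%, limit read from the data; inconclusive = mean below that limit but half or more replicates reach it; inactive = mean below it, under half of replicates reach it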;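 also: signal also drops with host cell toxicity which is not excluded here; 0% = plate median of DMSO wells and 100% = zero luminescence signal; higher percent means less beta-gal luminescence so fewer parasites; stock transfer was 50 nL into about 50 µL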
# Calb FLC: C. albicans growth modulation with fluconazole; C. albicans CaCi-2 (fluconazole-resistant clinical isolate) + fluconazole, Alamar Blue growth, 48 h; growth inhibition, % (no concentration beside the values); 300,000 compounds, 0.57% hits;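 active = most replicates above 75%; inconclusive = exactly half above 75%; inactive = most below 75%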;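 also: all wells also contain fluconazole at 8 µg/ml as a sub-toxic cotreatment; 0% = median of DMSO wells and 100% = median of geldanamycin control wells; wells of about 8 µL received 7.5 nL stock; the first replicate is given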
# MLL AF4-AF9 inh: MLL-AF4/AF9 protein interaction inhibition; P42568; AlphaScreen, biotin-AF4 peptide binding to FLAG-AF9; inhibition, % at 10 µM; 350,000 compounds, 0.47% hits; AID 651704;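 active = every replicate reaching a set inhibition limit, whatever the replicate mean, cut at about 25% in these data; inconclusive = mean inhibition reaches that limit but some replicates miss it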;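 also: 0% = plate neutral control median and 100% = total signal loss; the record names both 10 and 1 µM as test concentration; the first replicate is given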
# Target sequence (P42568 whole entry, looked up): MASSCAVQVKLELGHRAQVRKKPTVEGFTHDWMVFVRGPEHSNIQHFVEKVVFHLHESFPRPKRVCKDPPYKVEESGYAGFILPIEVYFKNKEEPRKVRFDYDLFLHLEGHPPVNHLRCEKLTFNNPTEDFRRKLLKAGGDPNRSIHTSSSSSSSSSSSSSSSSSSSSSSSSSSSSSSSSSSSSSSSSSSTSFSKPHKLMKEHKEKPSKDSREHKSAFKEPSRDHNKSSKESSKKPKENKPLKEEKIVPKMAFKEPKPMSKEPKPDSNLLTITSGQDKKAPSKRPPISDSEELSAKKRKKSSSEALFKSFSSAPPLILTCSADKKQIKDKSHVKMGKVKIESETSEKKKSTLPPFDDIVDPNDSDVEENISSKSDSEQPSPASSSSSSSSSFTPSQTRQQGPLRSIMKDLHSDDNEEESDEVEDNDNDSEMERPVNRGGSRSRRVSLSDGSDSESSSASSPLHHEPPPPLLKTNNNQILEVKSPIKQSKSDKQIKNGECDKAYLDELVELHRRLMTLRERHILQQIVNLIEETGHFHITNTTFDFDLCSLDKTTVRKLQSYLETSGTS
# FGF22 binding: shifts melting point of recombinant human FGF22; recombinant FGF22 thermal shift, SYPRO orange fluorescence; percent of sucrose octasulfate shift, DMSO zero; calls only at 9.99 µM; 340,000 compounds, 1.5% hits; Q9HCT0; AID 651658;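 active = melting point raised past a set limit in the mean and every replicate; inconclusive = no clear call; three in four hits are not shown here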
# Target sequence (Q9HCT0 whole entry, looked up): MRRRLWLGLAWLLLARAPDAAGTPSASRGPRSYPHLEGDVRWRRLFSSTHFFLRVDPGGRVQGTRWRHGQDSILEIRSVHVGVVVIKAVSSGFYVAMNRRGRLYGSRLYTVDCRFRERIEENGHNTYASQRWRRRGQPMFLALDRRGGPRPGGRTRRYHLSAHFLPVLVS
# Beta apoptosis: beta cell apoptosis inhibition | INS-1E cytokine-induced death, ATP luminescence, 48 h; percent of positive-control rescue, neutral wells zero | protection from apoptosis, % (concentration not given with the values) | 300,000 compounds, 0.8% hits | AID 435005;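 active = all replicates at 75% or more, or half of them and the mean; inconclusive = half reach 75% but not the mean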;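 also: 0% = cytokine-treated negative control wells and 100% = positive control rescue; higher means more ATP so stronger rescue from cytokine killing; wells of about 40 µL received 100 nL stock; the first replicate is given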
# RanGTP-Impb inh: inhibitors of RanGTP-importin-beta interaction, primary screen, biochemical, FRET, CFP-Ran, YFP-importin-beta, homogeneous. 300,000 compounds, 1.1% hits. cell-free CFP-Ran/YFP-importin-beta FRET ratio. inhibition, % (test concentration not listed). AID 2216;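 active = most replicates above 15%; inconclusive = exactly half above 15%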;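 also: 0% = DMSO wells and 100% = Ran loaded with GDP instead of GTP; wells of about 40 µL received 100 nL stock; the first replicate is given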
# rRNA inh HTS OD600: further read-out of rRNA inh HTS, marked with its call; OD600 change, %; measured here: OD600 growth;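 optical density of the mix in the first replicate; 0 = DMSO median and -100 = no signal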
# rRNA inh HTS RFP: second read-out of rRNA inh HTS, no call of its own (marks repeat the call); RFP signal change, %; measured here: RFP humanized mutant strains;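 first replicate; 0 = DMSO median and -100 = no signal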
# * hit, by the source's call; i = inactive; u = inconclusive; x = not tested or not shown. Some of the compounds tested (hit frequency here may not be typical).
SMILES,rRNA inh HTS,rRNA inh HTS OD600,rRNA inh HTS RFP,ALR H2O2 inh,T cruzi inh,Calb FLC,MLL AF4-AF9 inh,FGF22 binding,Beta apoptosis,RanGTP-Impb inh
COc1ccc(CCNC(=O)COC(=O)COc2c(C)cc(C)cc2C)cc1OC,-6.7,6.2,-1.1,1.9,-12.9,5.0,-0.4,i,2.0,1.7
O=C(NCCc1ccccc1)Nc1cccc(Cl)c1,x,x,x,x,4.0,-0.7,x,x,2.4,-3.2
O=C(c1ccco1)N1CCN(C(=O)c2[nH]ncc2[N+](=O)[O-])CC1,4.6,15.2,9.0,2.1,-12.2,22.5,0.3,i,-14.6,u
O=C(CN1C(=O)N/C(=C\c2ccccc2OCc2ccc(C(=O)O)cc2)C1=O)Nc1ccccc1F,0.5,-1.2,2.0,x,-5.0,-22.4,2.1,i,-8.0,3.5
COCCCNC(=O)C(=O)NCC1CCCN1S(=O)(=O)c1cccs1 (stereo not drawn),12.2,11.3,0.9,-6.9,-12.9,0.5,0.5,i,-9.5,u
O=c1[nH]c2ccccc2c(=O)n1CCCO,x,x,x,-1.4,-10.9,-8.9,-44.5,i,-5.4,-2.2
O=C(CSc1nnnn1-c1ccccc1)c1cc2ccccc2oc1=O,x,x,x,-8.2,1.2,-0.5,x,x,-4.3,4.1
Cc1cc(C)nc(SCc2cnc(C)nc2N)n1,10.2,3.1,-0.4,10.0,-7.3,12.7,-3.3,i,-1.6,u
COC(=O)NCC(c1ccco1)N1CCN(c2ccccc2)CC1 (stereo not drawn),7.0,-2.5,-7.1,96.4*,17.5,10.0,4.3,i,6.5,0.8
COCCN(C(=O)COC(=O)c1ccccc1Nc1ccccc1)c1c(N)n(Cc2ccccc2)c(=O)[nH]c1=O,2.2,1.1,5.2,14.0,8.1,15.9,-2.4,i,31.6,-2.2
CCc1ccc(OCC(=O)NCCc2ccc3c(c2)OCCO3)cc1,-1.1,-29.9,-1.4,-4.7,x,x,-9.7,i,-2.4,x
O=C(NCCC(=O)N1CCN(c2cccc(Cl)c2)CC1)c1ccc(Br)cc1,-63.1,-77.3,-20.9,-0.9,x,x,5.0,i,-1.4,x
CCCCn1c(N)c(N(CC(C)C)C(=O)c2cccc(-n3cnnn3)c2)c(=O)[nH]c1=O,4.3,13.5,-1.8,-5.0,-1.4,-6.7,-1.2,i,x,1.2
CCN(CC)CCN1C(=O)C(=O)/C(=C(/O)c2ccc(OC)c(OC)c2)C1c1ccccn1 (stereo not drawn),x,x,x,x,-6.0,-3.0,x,x,-2.1,33.8*
O=S(=O)(c1ccccc1)N1CCN(c2ncccn2)CC1,23.1,14.8,1.2,5.9,-3.3,0.3,1.0,i,-4.2,-1.3
O=C1[C@H]2[C@@H](c3ccc(F)cc3)N3C(=O)N(c4cccc(Br)c4)C(=O)[C@@]3(Cc3ccc(Cl)cc3)[C@H]2C(=O)N1C1CCCCC1,18.5,12.6,-4.3,4.1,41.1,15.7,1.9,i,31.0,-0.9
COc1ccc(NC2CCCN(C(=O)c3ccccc3N3CCOCC3)C2)cc1OC (stereo not drawn),3.9,8.3,-0.8,97.8*,10.8,8.8,-0.2,i,1.1,-2.7
O=C(NCCS(=O)(=O)N1CCCCC1)c1ccccc1,6.8,5.5,-1.1,-26.7,-12.0,1.4,0.0,i,-4.0,4.4
CC(Oc1ccc(Cl)cc1Cl)C(=O)Nc1cccc(O)c1 (stereo not drawn),-15.8,-14.9,-3.4,23.0,7.7,u,1.3,i,-0.1,-4.1
COCCNC(=O)c1cc2cc(Br)cc(OC)c2oc1=O,x,x,x,-0.8,-7.2,4.2,x,x,0.8,4.7
Cc1nc(-c2cccc(S(=O)(=O)N3CC(C)OC(C)C3)c2)cs1 (stereo not drawn),x,x,x,98.5*,-1.7,-4.9,x,x,-3.6,2.1
CC(=O)N/C(=C/c1ccccc1)c1ccccc1,4.5,12.1,-3.4,-3.0,x,x,2.7,i,-2.1,x
CCOC(=O)c1cc2c(ccn2C)n1Cc1ccccc1Cl,-16.9,-7.3,-1.1,12.1,20.6,22.5,9.8,i,-4.4,-0.3
CC1CCCN(CCCNS(=O)(=O)c2cc(Br)cc3c2N(C(=O)C2CC2)CC3)C1 (stereo not drawn),5.6,2.5,1.6,10.2,-3.8,4.4,-0.4,i,0.1,6.3
Cc1c(C(=O)Nc2cc(S(=O)(=O)N3CCOCC3)ccc2N2CCN(C)CC2)oc2ccccc12,0.8,-7.8,-4.5,-2.0,33.2,6.2,3.5,i,-13.6,-0.7

# Compounds from the list above with fluorine:
SMILES,rRNA inh HTS,rRNA inh HTS OD600,rRNA inh HTS RFP,ALR H2O2 inh,T cruzi inh,Calb FLC,MLL AF4-AF9 inh,FGF22 binding,Beta apoptosis,RanGTP-Impb inh
O=C(CN1C(=O)N/C(=C\c2ccccc2OCc2ccc(C(=O)O)cc2)C1=O)Nc1ccccc1F,0.5,-1.2,2.0,x,-5.0,-22.4,2.1,i,-8.0,3.5
O=C1[C@H]2[C@@H](c3ccc(F)cc3)N3C(=O)N(c4cccc(Br)c4)C(=O)[C@@]3(Cc3ccc(Cl)cc3)[C@H]2C(=O)N1C1CCCCC1,18.5,12.6,-4.3,4.1,41.1,15.7,1.9,i,31.0,-0.9

# Later entries.
SMILES,rRNA inh HTS,rRNA inh HTS OD600,rRNA inh HTS RFP,ALR H2O2 inh,T cruzi inh,Calb FLC,MLL AF4-AF9 inh,FGF22 binding,Beta apoptosis,RanGTP-Impb inh
C=CCn1c(SCCN2CCCCC2)nc2c1c(=O)[nH]c(=O)n2C,5.6,10.6,-0.8,x,-15.8,2.4,-1.7,i,-4.3,1.1
COc1ccc(CCN2CC(C(=O)NCc3ccccc3)CCC2=O)cc1 (stereo not drawn),-1.7,-0.1,-0.9,-2.8,-11.4,-2.2,-0.8,i,x,1.5
Cc1cccc(NS(=O)(=O)c2cc3c4c(c2)CCN4C(=O)CC3)c1C,x,x,x,-15.8,1.3,-2.0,x,x,-3.1,-1.9
CCOC(=O)C1CCN(C(=O)CCn2c(=O)c3cccn3c3cccnc32)CC1,-1.6,-3.9,1.4,-3.1,13.2,-5.1,2.9,i,-1.4,5.1
O=C(Nc1ccc(N2CCN(C(=O)c3ccco3)CC2)cc1)c1ccccc1F,x,x,x,x,11.6,3.2,x,x,-6.0,2.3
CCc1[nH]c(=S)c(C#N)c2c1CCCC2,x,x,x,8.9,5.7,-0.6,x,x,x,-2.9
Cc1cccc2sc(N(CCCN(C)C)C(=O)CCS(=O)(=O)c3ccccc3)nc12,-0.1,-2.0,2.3,30.5,1.1,-6.0,10.7,i,-4.2,2.5
CN(C)S(=O)(=O)c1cccc(NC(=O)c2c[nH]c3ccccc23)c1,-10.0,-10.3,1.7,60.2,-0.3,-8.1,1.3,i,-5.4,-0.4
CCc1ccc(C(=O)c2cnc3ccc(OC)cc3c2N2CCN(CC)CC2)cc1,2.2,12.1,-1.0,42.6,50.4,60.5,12.7,i,2.3,11.1
COc1cccc(CNC(=O)CCS(=O)(=O)c2ccc3c(c2)NC(=O)CO3)c1,2.3,0.5,1.3,-3.1,-1.2,11.1,2.0,i,-0.9,0.8
CCC1Sc2ccc(S(=O)(=O)CCC(=O)NCc3cccs3)cc2NC1=O (stereo not drawn),-1.2,-0.1,-0.9,4.5,8.1,-0.9,0.9,i,3.0,1.9
Cc1ccc2[nH]c(C(=O)O)c(-c3ccccc3)c2c1,x,x,x,98.3*,-0.2,0.0,x,x,2.7,-2.7
Cc1ccnc(NC(=O)c2cccc(NC(=O)Cc3ccccc3)c2)c1,-31.5*,-22.8*,8.6*,-11.2,9.5,5.0,0.4,x,-1.1,2.6
Oc1cc2ccccc2nc1-c1ccccc1Cl,-7.4,-11.8,0.2,43.8,-5.4,0.3,-7.4,i,-1.5,-3.6
CCN1C(=O)c2cccc3c(S(=O)(=O)Nc4nc(C)cs4)ccc1c23,x,x,x,-14.2,10.0,-2.8,x,x,-7.1,10.5
Cc1cc(NC(=O)CCC(=O)N(CC(=O)NC2CCCC2)c2ccc(C(C)C)cc2)no1,2.2,20.1,0.4,-9.2,7.8,0.3,0.3,i,3.1,0.8
CCNCc1nc2cc(OC)c(OC)cc2c(=O)[nH]1,x,x,x,0.7,-8.0,3.8,x,x,-4.6,3.5
COC(=O)c1ccc(N=C2S/C(=C\c3cc(C)n(-c4cccnc4)c3C)C(=O)N2C)cc1,x,x,x,-3.0,24.5,-2.0,x,x,4.7,3.9
COc1ccc(Br)cc1CNC(=O)Cc1c(C(=O)O)[nH]c2ccc(Cl)cc12,-39.1,-44.2,-7.7,4.7,-7.6,-0.5,-0.6,i,-0.9,1.2
CN(C[C@H](Cc1ccccc1)N(C[C@H](Cc1ccccc1)N(CC1(c2ccccc2)CC1)N=O)N=O)N=O,9.2,6.0,3.5,5.4,53.6,-27.1,u,i,0.7,5.1
CCN(CC1CCCN(CCc2cccc(F)c2)C1)C(=O)c1cc2ccccc2o1 (stereo not drawn),0.9,-11.1,0.6,3.2,49.9,-23.6,5.5,i,3.3,0.3

# Among those listed so far, these have a Cl atom:
SMILES,rRNA inh HTS,rRNA inh HTS OD600,rRNA inh HTS RFP,ALR H2O2 inh,T cruzi inh,Calb FLC,MLL AF4-AF9 inh,FGF22 binding,Beta apoptosis,RanGTP-Impb inh
O=C(NCCc1ccccc1)Nc1cccc(Cl)c1,x,x,x,x,4.0,-0.7,x,x,2.4,-3.2
O=C(NCCC(=O)N1CCN(c2cccc(Cl)c2)CC1)c1ccc(Br)cc1,-63.1,-77.3,-20.9,-0.9,x,x,5.0,i,-1.4,x
O=C1[C@H]2[C@@H](c3ccc(F)cc3)N3C(=O)N(c4cccc(Br)c4)C(=O)[C@@]3(Cc3ccc(Cl)cc3)[C@H]2C(=O)N1C1CCCCC1,18.5,12.6,-4.3,4.1,41.1,15.7,1.9,i,31.0,-0.9
CC(Oc1ccc(Cl)cc1Cl)C(=O)Nc1cccc(O)c1 (stereo not drawn),-15.8,-14.9,-3.4,23.0,7.7,u,1.3,i,-0.1,-4.1
CCOC(=O)c1cc2c(ccn2C)n1Cc1ccccc1Cl,-16.9,-7.3,-1.1,12.1,20.6,22.5,9.8,i,-4.4,-0.3
Oc1cc2ccccc2nc1-c1ccccc1Cl,-7.4,-11.8,0.2,43.8,-5.4,0.3,-7.4,i,-1.5,-3.6
COc1ccc(Br)cc1CNC(=O)Cc1c(C(=O)O)[nH]c2ccc(Cl)cc12,-39.1,-44.2,-7.7,4.7,-7.6,-0.5,-0.6,i,-0.9,1.2

# Screening data from PubChem BioAssay.
